Screening data (PubChem BioAssay)
Marburg entry inh: qHTS for inhibitors of binding or entry into cells for Marburg Virus. Marburg virus pseudotyped entry inhibition, cell reporter; control for the full effect not named in the record; about a third of the inactives were read at about 46 µM. Potency, µM (doses to about 37.8 µM), without a hit: at the highest dose activity change, negative = inhibition, most hits filed as inhibitors. 300,000 tested, 1.8% active; active = well fitted inhibition curve with a large enough effect; inconclusive = small, poorly fitted or top-dose-only effect, or effect the other way; inactive = flat fitted curve, though single readings scatter; tested in HEK293 cells; about a fifth of its hits are not listed in these tables; also: % is scaled to controls: 0 for no effect and ±100 for the full control effect; luciferase read-out
StopGo reporter: High Throughput Screening for Foot and Mouth Disease Virus Antivirals. Potency, µM (doses to about 57.9 µM), inactives show at the highest dose signal change, negative = less light. human cells with a luciferase reporter of 2A StopGo recoding; control for the full effect not named in the record. 410,000 tested, 1.2% active; active = well fitted falling curve with a large enough effect; inconclusive = small, poorly fitted or top-dose-only effect; inactive = no such curve, though single readings can be large or run the other way; tested in HEK293T cells; also: % is scaled to controls: 0 for no effect and ±100 for the full control effect; nearly all actives have a fitted effect of over 45% in size; luciferase light after 4 h
RE007 growth inh: qHTS Assay for Inhibitors of the HIV-1 protein Vpr; 360,000 tested, 0.21% active; AID 651644, 2012; Potency, µM (doses to about 92.2 µM), inactives show at the highest dose activity change, negative = less growth; S. pombe RE007 Vpr strain, BacTiter-Glo ATP luminescence, 24 h; control for the full effect not named in the record; active = well fitted falling curve with a large enough effect; inconclusive = small, poorly fitted or top-dose-only effect; inactive = no such curve, though single readings can be large or run the other way;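 also: % is scaled to controls: 0 for no effect and ±100 for the full control effect; nearly all actives have a fitted effect of over 50% in size; the assay follows cell death caused by Vpr and the record does not say whether a fall means rescue or toxicity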
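Fission yeast RE007 carrying one integrated HIV-1 vpr copy, seeded at OD 0.01 in PMG+AL medium with 23 nL pinned compound. Grown 24 h at 30 degrees; viability read by BacTiter-Glo luminescence after 5 min.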
Cruzain inh Det: qHTS Assay for Promiscuous and Specific Inhibitors of Cruzain (with detergent); Cruzipain (Trypanosoma cruzi), P25779; purified cruzain, Z-FR-AMC fluorescence, 0.01% Triton; Potency, µM, inactives show max response, negative = inhibition, usual class: inhibitors; 200,000 tested, 0.43% active; active = well fitted curve in the direction sought with a large enough effect; inconclusive = small, poorly fitted or top-dose-only effect, or another doubt; inactive = no such curve, though single readings can be large; an effect the other way counts as inactive or inconclusive;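 also: plate controls were neutral wells for no effect and buffer without enzyme for full effect; nearly all actives have a fitted effect of over 40% in size; top concentration of the series not given in the record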
Target sequence (P25779 123-467 limits assumed): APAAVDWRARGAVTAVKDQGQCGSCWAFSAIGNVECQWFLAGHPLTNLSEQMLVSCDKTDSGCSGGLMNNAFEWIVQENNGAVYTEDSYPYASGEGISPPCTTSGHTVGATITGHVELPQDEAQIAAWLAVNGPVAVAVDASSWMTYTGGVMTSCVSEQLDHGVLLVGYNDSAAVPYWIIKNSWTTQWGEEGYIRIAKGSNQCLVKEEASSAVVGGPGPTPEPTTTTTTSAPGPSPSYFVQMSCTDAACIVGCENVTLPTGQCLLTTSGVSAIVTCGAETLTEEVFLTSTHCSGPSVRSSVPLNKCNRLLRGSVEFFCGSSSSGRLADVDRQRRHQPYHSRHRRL
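15 min RT preincubation of 1.5 nM cruzain with compound, then 2 uM Z-FR-AMC added; kinetic AMC fluorescence, 60 s delta. Triton X-100 0.01%, pH 5.5.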
SARS PLP yeast: qHTS of Yeast-based Assay for SARS-CoV PLP; 330,000 tested, 0.19% active; AID 485353, 2010; Potency, µM (series often up to 32.9 µM), inactives show top-dose activity, positive = growth rescue; S. cerevisiae expressing SARS-CoV PLpro, growth rescue; control for the full effect not named in the record; also: 0% is about no effect; nearly all actives have a fitted effect of over 55% in size; growth read by luminescence after 48 h
Cruzain noTriton: qHTS Assay for Promiscuous and Specific Inhibitors of Cruzain (without detergent) | purified cruzain, Z-FR-AMC fluorescence, no detergent | Potency, µM, without a hit: max response, negative = inhibition, hits mostly inhibitors | 200,000 tested, 2.3% active | AID 1476, 2009; active = well fitted curve in the direction sought with a large enough effect; inconclusive = small, poorly fitted or top-dose-only effect, or another doubt; inactive = no such curve, though single readings can be large; an effect the other way counts as inactive or inconclusive;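 also: plate controls were enzyme without inhibitor for no effect and buffer without enzyme for full effect; nearly all actives have a fitted effect of over 40% in size; top concentration of the series not given in the record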
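Purified cruzain at 1.5 nM, pre-incubated 15 min with compound at room temperature in 100 mM sodium acetate pH 5.5, 5 mM DTT, 0.00005% Triton X-100. Reaction started with 2 uM Z-FR-AMC; AMC fluorescence increase over 60 s gives rate.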
NS1 function inh: qHTS Assay for Inhibitors of Influenza NS1 Protein Function; S. cerevisiae slowed by influenza A NS1, growth recovery by OD600; Potency, µM (series often up to 46.1 µM), without a hit: top-dose activity, positive = more growth; 270,000 tested, 0.4% active; AID 2326, 2010; also: actives are rising curves; nearly all actives have a fitted effect of over 50% in size
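In this qHTS, NS1 from influenza A is expressed in budding yeast, where it slows growth. Cells are switched from glucose to 2% galactose medium (pH 6.0, -URA), treated with compound, and growth recovery is read at OD600.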
Lassa entry inh: qHTS for Inhibitors of binding or entry into cells for Lassa Virus; Lassa virus pseudotype entry inhibition, cell reporter; control for the full effect not named in the record; Potency, µM (series often up to 37.9 µM), without a hit: at the highest dose activity change, negative = inhibition, hits mostly inhibitors; 300,000 tested, 1.2% active; active means well fitted inhibition curve with a large enough effect; inconclusive means small, poorly fitted or top-dose-only effect, or effect the other way; inactive means flat fitted curve, though single readings scatter; tested in HEK293 cells; also: % is scaled to controls: 0 for no effect and ±100 for the full control effect; nearly all actives have a fitted effect of over 50% in size; luciferase read-out
An asterisk follows results filed as active; ? = inconclusive; nt = no result given; & = joins results of further samples; [ ] = dose if it differs, or a comment. Unless noted, calls follow the shape of the dose curve; as a rule, active means well fitted rising curve with a large enough effect; inconclusive means small, poorly fitted or top-dose-only effect; inactive means no such curve, though single readings can be large or run the other way. Potency is read from the fitted curve at half-maximal effect.

SMILES	Marburg entry inh	StopGo reporter	RE007 growth inh	Cruzain inh Det	SARS PLP yeast	Cruzain noTriton	NS1 function inh	Lassa entry inh
O=C(Nc1ccccc1)C1CC(=O)n2c(nc3ccccc32)N1 (stereo not given)	0%[46.1 µM]	-16%	-8%	nt	1%	nt	-1%	2%
CC(=O)NCCc1nc2ccccc2n1Cc1ccc(Cl)cc1	nt	-10%	3%	nt	0%	nt	1%	nt
CCN(CC)S(=O)(=O)c1ccc2c(c1)c(=O)c(C(=O)NCc1ccccc1OC)cn2C	14%[46.1 µM]	0%	nt	0.2%	nt	0%	nt	?
Cc1cc(NC(=O)CSc2nc3ccccc3[nH]2)n(-c2ccccc2)n1	nt	0%	-18%	nt	1%	nt	2%	nt
Cc1ccc(CN(C(=O)COc2cc(C)c(Cl)c(C)c2)c2ccccn2)o1	-2%[46.1 µM]	-9%	nt	-6.7%	nt	8%	nt	4%[46.1 µM]
CN(C)c1cccc(C(=O)N/N=C/c2ccccc2F)c1	?	-54%	10%	nt	0%	nt	-4%	10µM*
COc1ccc(CCNC(=O)CCn2c(=O)c3ccccc3n(Cc3ccccc3F)c2=O)cc1OC	-2%[46.1 µM]	?	nt	-0.6%	nt	-13%	nt	-15%[46.1 µM]
COc1ccc(NC(=O)CSc2nnnn2C)c([N+](=O)[O-])c1	28%[46.1 µM]	10%	9%	nt	3%	nt	nt	22%
COc1cccc(NS(=O)(=O)c2c(C)cc(C)cc2C)c1	-6%	0%	14%	-8.5%	-29%	-6%	-63%	-2%
COc1ccc2c(c1)CCc1c-2nc2ccccc2c1N1CCOCC1	?	14%	-14%	nt	-1%	nt	-11%	-28%
Cc1ccc(-n2c(Cc3ccccc3)nnc2SCc2nc(-c3cccs3)no2)cc1C	?	-23%	nt	-9.0%	nt	-7%	nt	-29%[46.1 µM]
COc1cccc(OC)c1OCCCSc1nc(C)cc(=O)[nH]1	?	-13%	-5%	-13%	22%	?	?	-1%
COC(=O)CSc1nnc2c3c4c(sc3nc(-n3nc(C)cc3C)n12)COC(C)(C)C4	3%	-9%	22%	-2.2%	-5%	?	5%	3%
O=C(CNC(=O)N1CC(=O)Nc2ccccc21)Nc1nccs1	nt	-18%	-5%	nt	-2%	nt	-11%	nt
O=C(Nc1ccc(Oc2ccccc2)nc1)C1CCCCN1Cc1cccc(O)c1 (stereo not given)	?	-7%	-3%	nt	-6%	nt	-2%	?
CCCC(=O)NC(=S)Nc1nc(-c2ccc(OC)cc2)cs1	?	1%	8%	-6.9%	-2%	?	9%	-15%
Cc1ccccc1NC(=S)NNC(=O)c1cccc(Br)c1	16%[46.1 µM]	1%	39%	nt	19%	nt	nt	25%
Cc1cc(C=C2C(=O)NC(=S)NC2=O)c(C)n1-c1ccc2c(c1)OCO2	-51%	?	22%	-11%	-10%	-9%	?	10%
CN(C(=O)CSc1nnnn1-c1ccccc1)C1CCCCC1	-1%	31%[activator]	-4%	2.1%	2%	3%	-3%	-13%
CCOCCCNC(=O)C(c1ccc(Cl)cc1)N1CCN(C(=O)c2ccco2)CC1 (stereo not given)	21%&21%[46.1 µM]	12%	-5%	-0.3%	4%	21%	-16%	-7%
COc1cc2ccc(=O)oc2c2ccoc12	1%&1%	2%&-12%	-3%	0.1%&-0.4%	-1%	-13%&-3%	-19%	-22%
Cc1c(NC(=O)CN2CC(C)OC(C)C2)c(=O)n(-c2ccccc2)n1C (stereo not given)	-9%[46.1 µM]	-10%	-9%&-7%	7.6%	4%	1%	-1%	-15%[46.1 µM]
Cc1nn(-c2nc(-c3ccccc3)cc(C(F)(F)F)n2)c(C)c1Cl	-25%[46.1 µM]	-9%	nt	-7.9%	nt	?	nt	5%[46.1 µM]
O=C(CC1SC(=O)N(c2ccccc2)C1=O)Nc1ccc(Cl)cc1 (stereo not given)	24%	-34%	0%	nt	-6%	nt	10%	6%
Cc1cccc(C)c1Nc1c(-c2ccc(N3CCOCC3)cc2)nc2cnccn12	nt	0%	0%	nt	-3%	nt	-5%	nt

Record cards, from the list above. Order of values: Marburg entry inh, StopGo reporter, RE007 growth inh, Cruzain inh Det, SARS PLP yeast, Cruzain noTriton, NS1 function inh, Lassa entry inh
Cc1ccccc1NC(=S)NNC(=O)c1cccc(Br)c1 is listed as 16%[46.1 µM], 1%, 39%, nt, 19%, nt, nt, 25%
O=C(CC1SC(=O)N(c2ccccc2)C1=O)Nc1ccc(Cl)cc1 (stereo not given) is listed as 24%, -34%, 0%, nt, -6%, nt, 10%, 6%
Cc1ccc(-n2c(Cc3ccccc3)nnc2SCc2nc(-c3cccs3)no2)cc1C is listed as ?, -23%, nt, -9.0%, nt, -7%, nt, -29%[46.1 µM]
Cc1cccc(C)c1Nc1c(-c2ccc(N3CCOCC3)cc2)nc2cnccn12 is listed as nt, 0%, 0%, nt, -3%, nt, -5%, nt
Cc1nn(-c2nc(-c3ccccc3)cc(C(F)(F)F)n2)c(C)c1Cl is listed as -25%[46.1 µM], -9%, nt, -7.9%, nt, ?, nt, 5%[46.1 µM]

(next part)
SMILES	Marburg entry inh	StopGo reporter	RE007 growth inh	Cruzain inh Det	SARS PLP yeast	Cruzain noTriton	NS1 function inh	Lassa entry inh
O=C(O)CSc1nc2ccccc2c(=O)[nH]1	10%	nt	9%	-1.3%	4%	1%	-2%	-18%
Cc1c(C(=O)OC(C)C(C)C[N+](C)(C)C)oc2ccccc12 (stereo not given)	1%	5%	1%	3.0%	-3%	-1%	-9%	4%
CN1CCN(CCC(=O)Nc2ccc(Cl)cc2)CC1	7%[46.1 µM]	80%[activator]	nt	1.2%	nt	12%	nt	-3%[46.1 µM]
CCOc1cc(C(=O)OCC(=O)Nc2c(C)cccc2C)ccc1OCC(=O)N1CCOCC1	1%	-12%	5%	1.7%	11%	4%	-4%	-8%
Cc1ccccc1C(=O)Nc1nnc(-c2ccco2)o1	27%[46.1 µM]	51%[activator]	-2%	nt	-2%	nt	4%	?
N#Cc1ccc(C(=O)Nc2nnc(-c3ccccn3)o2)cc1	?	27%	-8%	-4.6%	-9%	-3%	9%	1%
CCCc1cc(-c2nc(N)ncc2-c2ccc3c(c2)OCCCO3)c(O)cc1OC	?	?	14%	-5.8%	-19%	-15%	20%	?
Clc1cccc(CSc2ccc(-c3ccco3)nn2)c1	?	21%	-25%	nt	-1%	nt	nt	0%
Cc1ccccc1Cn1cc(NC(=O)c2cc3nc(-c4ccco4)cc(C(F)(F)F)n3n2)cn1	-10%&-10%	?	-11%	-5.0%	-1%	?	-53%	-5%
CCOc1ccc(NC(=O)CN(C)C(=O)c2cc([N+](=O)[O-])ccc2N2CCCCC2)cc1OCC	-14%	-22%	3%	nt	nt	nt	nt	7%
COC(=O)c1c(NC(=O)C(C)(C)C)sc2c1C(C(=O)OC)CC2 (stereo not given)	-5%[46.1 µM]	-23%	4%	-1.9%	19%	16%	-14%	4%
O=C(CSc1nnc(-c2cccs2)o1)NCC1CN(Cc2ccccc2)CCO1 (stereo not given)	-2%&-2%	-7%	3%	-10%	1%	6%	1%	-8%
CCCSc1ncc(Cl)c(C(=O)Nc2c(C(=O)Nc3ccccc3)oc3ccccc23)n1	10%[46.1 µM]	-12%	nt	-2.1%	nt	-6%	nt	6%[46.1 µM]
COc1ccc(NS(=O)(=O)c2cc(NC(=O)/C=C/c3ccccc3OC)ccc2N2CCCCC2)cc1	-11%	54%[activator]	-1%	-3.2%	-6%	3.2µM*	-2%	-1%
CC(=O)c1c(C)[nH]c(C(=O)Nc2nc(-c3ccc(Cl)cc3)cs2)c1C	?	?	2%	-8.2%	-28%	-11%	2%	?
Cc1ccc(C2(C)NC(=O)N(CC(=O)Nc3ccccc3N3CCCC3)C2=O)cc1 (stereo not given)	-24%[46.1 µM]	-18%	8%	nt	9%	nt	nt	-29%
CCOC(=O)c1c(NC(=O)C2C3CCC(O3)C2C(=O)O)sc2c1CCC(CC)C2 (stereo not given)	-19%[46.1 µM]	-16%	0%	nt	0%	nt	1%	-7%[46.1 µM]
CCS(=O)(=O)N1CCN(Cc2ccncc2)CC1	0%	nt	-7%	5.6%	4%	7%	5%	14%
O=C(COC(=O)c1ccc(=O)[nH]c1)Nc1cccc(S(=O)(=O)N2CCOCC2)c1	nt	0%	7%	nt	0%	nt	11%	nt
COC(=O)c1cc(NS(=O)(=O)c2ccc(N3CCCCC3)c([N+](=O)[O-])c2)cc(C(=O)OC)c1	22%	-16%	-13%	-3.4%	7%	-6%	?	?
O=C1NC(=Nc2ccccc2)SC1(CO)CO	-2%	-14%	2%	nt	-1%	nt	2%	15%
Cc1ccc(S(=O)(=O)N2CCC(=O)N(C(COCc3ccc(Cl)cc3)C(C)C)CC2)cc1 (stereo not given)	-29%	?	22%	-6.2%	-7%	?	-16%	?
CC(Cc1ccccc1)NC(=O)c1ccc(N)cc1 (stereo not given)	2%	39%[activator]	-7%	nt	5%	nt	12%	1%
